Cruzain Triton – qHTS Assay for Promiscuous and Specific Inhibitors of Cruzain (with detergent) | Cruzipain (Trypanosoma cruzi), P25779 | purified cruzain, Z-FR-AMC fluorescence, 0.01% Triton | Potency, µM, for the others: max response, negative = inhibition, most hits filed as inhibitors | 200,000 tested, 0.43% active;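 also: plate controls were neutral wells for no effect and buffer without enzyme for full effect; nearly all actives have a fitted effect of over 40% in size; top concentration of the series not given in the record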
Target sequence (P25779 123-467 limits assumed): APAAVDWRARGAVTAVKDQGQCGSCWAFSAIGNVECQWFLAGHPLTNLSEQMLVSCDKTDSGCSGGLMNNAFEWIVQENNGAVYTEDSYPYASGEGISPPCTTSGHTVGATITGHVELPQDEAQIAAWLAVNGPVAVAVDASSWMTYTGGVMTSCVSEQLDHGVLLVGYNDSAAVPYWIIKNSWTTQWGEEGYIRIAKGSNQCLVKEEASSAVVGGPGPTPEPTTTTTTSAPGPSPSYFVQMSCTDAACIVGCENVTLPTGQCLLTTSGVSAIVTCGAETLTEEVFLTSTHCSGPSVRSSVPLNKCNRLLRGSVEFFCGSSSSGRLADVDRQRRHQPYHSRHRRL
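15 min RT preincubation of 1.5 nM cruzain with compound, then 2 uM Z-FR-AMC added; kinetic AMC fluorescence, 60 s delta. Triton X-100 0.01%, pH 5.5.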
NS1 inh – qHTS Assay for Inhibitors of Influenza NS1 Protein Function. S. cerevisiae slowed by influenza A NS1, growth recovery by OD600. Potency, µM (top dose mostly 46.1 µM), inactives show at the top dose activity, positive = more growth. 270,000 tested, 0.4% active. AID 2326, 2010; active means well fitted rising curve with a large enough effect; inconclusive means small, poorly fitted or top-dose-only effect; inactive means no such curve, though single readings can be large or run the other way; also: nearly all actives have a fitted effect of over 50% in size
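Read-out: OD600 growth recovery of NS1-expressing budding yeast. Cells grown overnight at 30C in -URA glucose medium, washed, resuspended and diluted 1:100 in 2% galactose assay medium, pH 6.0. Same strain lacking NS1 served as positive control.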
RE007 growth inh – qHTS Assay for Inhibitors of the HIV-1 protein Vpr; Potency, µM (top dose mostly 92.2 µM), for the others: top-dose activity change, negative = less growth; S. pombe RE007 Vpr strain, BacTiter-Glo ATP luminescence, 24 h; control for the full effect not named in the record; 360,000 tested, 0.21% active; active = well fitted falling curve with a large enough effect; inconclusive = small, poorly fitted or top-dose-only effect; inactive = no such curve, though single readings can be large or run the other way;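 also: % is scaled to controls: 0 for no effect and ±100 for the full control effect; nearly all actives have a fitted effect of over 50% in size; the assay follows cell death caused by Vpr and the record does not say whether a fall means rescue or toxicity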
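Fission yeast strain RE007, carrying one chromosomally integrated HIV-1 vpr copy, was seeded at OD 0.01 in PMG+AL medium with 23 nL pinned compound. After 24 h at 30 °C and 99% humidity, viability was read by BacTiter-Glo luminescence.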
2A StopGo – High Throughput Screening for Foot and Mouth Disease Virus Antivirals. human cells with a luciferase reporter of 2A StopGo recoding; control for the full effect not named in the record. Potency, µM (series often up to 57.9 µM), for the others: at the top dose signal change, negative = less light. 410,000 tested, 1.2% active. AID 1159524, 2015; active = well fitted falling curve with a large enough effect; inconclusive = small, poorly fitted or top-dose-only effect; inactive = no such curve, though single readings can be large or run the other way; tested in HEK293T cells; also: % is scaled to controls: 0 for no effect and ±100 for the full control effect; nearly all actives have a fitted effect of over 45% in size; luciferase light after 4 h
Lassa entry inh – qHTS for Inhibitors of binding or entry into cells for Lassa Virus; Lassa virus pseudotype entry inhibition, cell reporter; control for the full effect not named in the record; Potency, µM (titrated, usually from 37.9 µM), inactives show at the top dose activity change, negative = inhibition, hits mostly inhibitors; 300,000 tested, 1.2% active; active means well fitted inhibition curve with a large enough effect; inconclusive means small, poorly fitted or top-dose-only effect, or effect the other way; inactive means flat fitted curve, though single readings scatter; tested in HEK293 cells; also: % is scaled to controls: 0 for no effect and ±100 for the full control effect; nearly all actives have a fitted effect of over 50% in size; luciferase read-out
Marburg entry inh – qHTS for inhibitors of binding or entry into cells for Marburg Virus; Marburg virus pseudotyped entry inhibition, cell reporter; control for the full effect not named in the record; about a third of the inactives were read at about 46 µM; Potency, µM (top dose mostly 37.8 µM), without a hit: at the highest dose activity change, negative = inhibition, usual class: inhibitors; 300,000 tested, 1.8% active; active = well fitted inhibition curve with a large enough effect; inconclusive = small, poorly fitted or top-dose-only effect, or effect the other way; inactive = flat fitted curve, though single readings scatter; tested in HEK293 cells; about a fifth of its hits are not listed in these tables; also: % is scaled to controls: 0 for no effect and ±100 for the full control effect; luciferase read-out
SARS PLP yeast – qHTS of Yeast-based Assay for SARS-CoV PLP. S. cerevisiae expressing SARS-CoV PLpro, growth rescue; control for the full effect not named in the record. Potency, µM (top dose mostly 32.9 µM), without a hit: at the highest dose activity, positive = growth rescue. 330,000 tested, 0.19% active. AID 485353, 2010; active means well fitted rising curve with a large enough effect; inconclusive means small, poorly fitted or top-dose-only effect; inactive means no such curve, though single readings can be large or run the other way; also: 0% is about no effect; nearly all actives have a fitted effect of over 55% in size; growth read by luminescence after 48 h
Cruzain noTriton – qHTS Assay for Promiscuous and Specific Inhibitors of Cruzain (without detergent); Cruzipain (Trypanosoma cruzi), P25779; purified cruzain, Z-FR-AMC fluorescence, no detergent; Potency, µM, without a hit: max response, negative = inhibition, most hits filed as inhibitors; 200,000 tested, 2.3% active; AID 1476, 2009;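 also: plate controls were enzyme without inhibitor for no effect and buffer without enzyme for full effect; nearly all actives have a fitted effect of over 40% in size; top concentration of the series not given in the record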
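Detergent-free condition (0.00005% Triton X-100) in acetate buffer pH 5.5 with DTT. 1.5 nM enzyme and compound were pre-mixed 15 min, then 2 uM Z-FR-AMC substrate added; reaction progress from fluorescence change between first and third reads (60 s).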
* = called active by the depositor; ? = inconclusive; · = not tested or not shown; & = joins results of further samples; [ ] = remark or other dose. Unless noted, calls follow the shape of the dose curve; as a rule, active = well fitted curve in the direction sought with a large enough effect; inconclusive = small, poorly fitted or top-dose-only effect, or another doubt; inactive = no such curve, though single readings can be large; an effect the other way counts as inactive or inconclusive. Potency is read from the fitted curve at half-maximal effect. Hits appear at their usual frequency; any-hit rate near 4.6%.

SMILES	Cruzain Triton	NS1 inh	RE007 growth inh	2A StopGo	Lassa entry inh	Marburg entry inh	SARS PLP yeast	Cruzain noTriton
O=C(CCCCCn1c(=O)c2sccc2n(CC(=O)Nc2cc(C(F)(F)F)ccc2Cl)c1=O)NCc1ccccc1Cl	-7.4%	·	·	-6%	?	?	·	16µM*
O=S(=O)(Nc1cccc(-c2ccc(N3CCCCC3)nn2)c1)c1cccc(F)c1	-5.0%	·	·	5%	?	·	·	-10%
O=C(c1ccc(CNc2c(N3CCCC3)c(=O)c2=O)cc1)N1CC=C(c2ccccc2)CC1	·	6%	2%	-15%	·	·	1%	·
CC1(C)CC(=O)C(C=NCc2cccnc2)=C(O)C1	-0.5%	-7%	8%	2%	?	17%	3%	-4%
O=C(/C=C/c1ccncc1)c1ccc2c(c1)OCCO2	·	-5%	-24%	28µM*	?	14µM*	-6%	·
CN(Cc1ccccc1)C(=O)COC(=O)/C=C/c1ccco1	·	·	12%	29%	24%	9%	-2%	·
O=C(c1ccccc1)N1CCC(CC2CC(c3cccc(Br)c3)=NO2)(C(=O)NCC2CCCCC2)CC1 (stereo not given)	·	?	9%	-22%	·	·	0%	·
COc1ccc(CN2CCNC(=O)C2CC(=O)NCc2cn3ccc(C)cc3n2)c(OC)c1 (stereo not given)	·	4%	-11%	-7%	2%[46.1 µM]	?	0%	·
Cc1cccc(/C=N/NC(=O)c2c(-c3ccccc3)noc2C)c1O	·	-9%	3%	-26%	-22%[46.1 µM]	?	?	·
CC#CC(=O)NCC1(N(C)Cc2ccccc2)Cc2ccccc2C1	·	12%	15%	-15%	·	·	-8%	·
Cc1ccccc1-c1nc2cc(NC(=O)COc3ccc(F)cc3)ccc2o1	-2.7%	·	·	14%	?	7%[46.1 µM]	·	-1%
CN(CC(=O)Nc1cccc(C(F)(F)F)c1)C1=NS(=O)(=O)c2ccccc21	·	·	-12%	-1%	?	11%	3%	·
Cc1ccsc1C(=O)N1CCCC(N2CCN(c3cccc(Cl)c3)CC2)C1 (stereo not given)	·	-17%	-8%	?	·	·	5%	·
Cc1cc(C)c(C(=O)N(CCN(C)C)CC2CCCN(Cc3ccccc3F)C2)o1 (stereo not given)	·	8%	-12%	-20%	-6%	?	2%	·
N#C/C(=C\c1ccc(O)cc1)c1nc2ccccc2o1	·	-77%	-26%	-4%	?	?	-3%	·
O=C(CN1C(=O)CSc2ccc(S(=O)(=O)N3CCOCC3)cc21)NCc1ccc(Cl)cc1	·	-4%	2%	8%	-29%[46.1 µM]	?	-2%	·
COc1ccc(S(=O)(=O)N2CCc3ccccc3C2)cc1C(=O)O	·	5%	-2%	-2%	3%	-12%[46.1 µM]	1%	·
COc1ccc(OCCCC(=O)Nc2nc(C)c(C(C)=O)s2)cc1	·	4%	7%	-13%	?	1%[46.1 µM]	-1%	·
N#C/C(=C\c1cccc(O)c1)C(=O)Nc1ccc2c(c1)OCCO2	·	-5%	11%	2%	·	·	-3%	·
Cc1nc2cc(C(F)(F)F)ccc2n1C1CCN(CC(=O)N2CCCC2)CC1	·	-2%	-13%	-10%	5%	-12%	1%	·
COC(=O)c1ccc(OCC2c3cc(OC)c(OC)cc3CCN2C(=O)Cc2ccccc2)cc1 (stereo not given)	0.8%	·	·	-29%	?	·	·	?
Cc1cccc2c1-c1sc(C(=O)NCCc3ccc(Cl)cc3)cc1CO2	-5.0%	·	·	0%	·	-24%[46.1 µM]	·	25µM*
O=C(Nc1cccc(C(=O)O)c1)/C(=C\c1ccc2c(c1)OCO2)NC(=O)c1ccccc1	·	·	4%	-4%	14%[46.1 µM]	-1%[46.1 µM]	1%	·
NS(=O)(=O)c1cccc(NC(=S)NCc2ccc3c(c2)OCO3)c1	·	·	25%	31%[activator]	14%	48%[46.1 µM]	-1%	·
O=C(NN=C1CCCCCC1)c1c[nH]c2ccccc12	0.6%	12%	18%	24%	-6%	1%	1%	1%
Cc1ccc(Cl)cc1NC(=O)CSc1nc2ccccc2nc1Cc1ccccc1	1.3%	·	·	1%	10%[46.1 µM]	·	·	7%
CCCC/C(C)=N/NC(=O)NC1CCCCC1	-1.4%	-3%	15%	2%	1%	-27%	-2%	-2%
Cc1cc(C)cc(NC(=O)CN2CCN(CCN=CC3=C(O)CC(c4ccc(Cl)cc4)CC3=O)CC2)c1 (stereo not given)	·	-1%	11%	-24%	·	·	-1%	·
CS(=O)(=O)N(CC(=O)Nc1ccccc1-c1ccccc1)c1cccc(F)c1	·	0%	4%	-17%	·	·	0%	·
O=C(NCCOCc1ccc(Cl)cc1)c1ncn[nH]1	-1.1%	8%	23%	-7%	2%	?	3%	-7%

Record cards, from the list above. Values in the order: Cruzain Triton | NS1 inh | RE007 growth inh | 2A StopGo | Lassa entry inh | Marburg entry inh | SARS PLP yeast | Cruzain noTriton
O=C(NCCOCc1ccc(Cl)cc1)c1ncn[nH]1 across the screens: -1.1% | 8% | 23% | -7% | 2% | ? | 3% | -7%
Cc1cccc2c1-c1sc(C(=O)NCCc3ccc(Cl)cc3)cc1CO2 across the screens: -5.0% | · | · | 0% | · | -24%[46.1 µM] | · | 25µM*

(further entries)
SMILES	Cruzain Triton	NS1 inh	RE007 growth inh	2A StopGo	Lassa entry inh	Marburg entry inh	SARS PLP yeast	Cruzain noTriton
O=C(CN(Cc1ccccc1)C(=O)CNS(=O)(=O)c1ccc(Cl)cc1)NCC1CCCO1 (stereo not given)	·	0%	22%	2%	1%	-26%[46.1 µM]	-3%	·
Cc1ccc2nc(N3CCN(S(=O)(=O)c4ccc5c(c4)OCCO5)CC3)c(C#N)cc2c1	1.8%	28%	6%	-18%	?	?	-1%	?
Cc1ccc(NC(=O)c2ccccc2N(C)S(C)(=O)=O)cc1C	3.3%	2%	11%	8%	?	-3%	8%	1%
CC(C)Oc1ccc(CNC(=O)c2ccc3nc(C(C)C)oc3c2)cc1	-3.4%	·	·	22%	?	·	·	?
COc1cc(/C=C2\SC(=O)NC2=O)ccc1Oc1ccc([N+](=O)[O-])cc1[N+](=O)[O-]	·	·	4%	-3%	-25%	1%[46.1 µM]	6%	·
Cc1ccc(NC(=O)COc2ccccc2CNC(C)(C)CC(C)(C)C)cc1	2.2%	-10%	-13%	0%	·	-2%	2%	0%
Cc1ccc(Nc2cc(C)c3c(O)cccc3n2)cc1C	·	-55%	-10%	8%	·	·	-2%	·
O=C(CSCc1c(Cl)cccc1Cl)NCc1ccco1	-6.2%	3%	-3%	-3%	-5%	13%	13%	2%
O=C1c2cc(F)ccc2OC2(CCNCC2)C12CC(c1ccccc1)=NO2 (stereo not given)	·	?	1%	-15%	·	·	3%	·
O=c1cc(O)c(-c2ccc(Cl)cc2)c(Cl)[nH]1	·	15%	-5%	-19%	·	-5%	3%	·
COc1ccc(NC(=O)C(NC(C)=O)C(=O)NCc2ccccc2Cl)cc1 (stereo not given)	0.7%	0%	-25%	0%	-1%	-4%	-3%	11%
CCC(C)NC(=O)C1(O)c2cc(Br)ccc2NC(=O)N1c1cccc(OC)c1 (stereo not given)	·	1%	-8%	0%	·	·	0%	·
O=C(NCCc1ccccn1)c1cccnc1Oc1ccc(Cl)cc1	·	-4%	2%	-11%	·	·	0%	·
COC(=O)c1cccc(S(=O)(=O)N2CCC(C)CC2)c1	5.5%	7%	-3%	23%	1%	3%	2%	?
COc1cc(OC)cc(-c2ncc3ccccn23)c1	-3.4%	-4%	?	-13%	-22%	-15%	-25%	-5%
N/C(=N\OC(=O)c1ccccc1)c1ccn[nH]1	·	-11%	?	?	?	?	-4%	·
Nc1ccc(Sc2ccc([N+](=O)[O-])cc2)cc1	·	·	19%	-7%	2%	0%[46.1 µM]	-3%	·
Cn1c(SCC(=O)NCC2CCCO2)nnc1-c1ccc(S(=O)(=O)N2CCCC2)cc1 (stereo not given)	2.8%	-7%	6%	·	-13%	-1%&14%	-13%	0%
Cc1nc2nc(C)c(CCC(=O)NCCc3ccccc3)c(C)n2n1	3.3%	·	·	31%[activator]	27%[46.1 µM]	11%[46.1 µM]	·	-15%
COc1ccc(/C=N/N2C(=O)C3C4C=CC(C4)C3C2=O)cc1[N+](=O)[O-] (stereo not given)	·	-5%	9%	28%	?	1%[46.1 µM]	-1%	·
COc1ccc(CCNC(=O)CSc2ccc(-c3ccco3)nn2)cc1OC	·	·	5%	4%	?	?	-5%	·
C=Cc1ccc(CSc2nc(-c3ccccc3Cl)nc3c2Cc2c(CO)cnc(C)c2O3)cc1	-4.2%	·	·	-30%	-8%[46.1 µM]	·	·	10%
Cc1ccc(C(=O)N2CCN(c3ncccn3)CC2)c(C)c1	·	-6%	1%	10%	?	0%[46.1 µM]	-7%	·
O=C(Nc1ccc(Cc2ccncc2)cc1)C1CCC(N2C(=O)C3CCCCC3C2=O)CC1 (stereo not given)	·	-2%	2%	?	·	·	0%	·
NS(=O)(=O)c1cccc(NC(=O)c2cccc(N3C(=O)c4ccccc4C3=O)c2)c1	·	·	4%	23%	8%	24%	·	·
COc1ccccc1-c1c(C(F)(F)F)oc2cc(OCC(=O)Nc3ccccc3C(F)(F)F)ccc2c1=O	-8.2%	12%	-10%	-23%	0%	-9%	-9%	11%
CC1=NN(c2ccccc2)C(=O)C1N=Nc1ccc(S(N)(=O)=O)cc1 (stereo not given)	·	4%	11%	-17%	·	·	-1%	·
COc1ccc(N(C(=O)CNC(=O)c2cccs2)C(C(=O)NC2CCCC2)c2ccncc2)cc1 (stereo not given)	·	-14%	6%	4%	-5%[46.1 µM]	13%[46.1 µM]	6%	·
Cn1c(CO)cnc1SCC(=O)c1ccc(F)cc1	·	-2%	-6%	25%	-18%[46.1 µM]	-14%[46.1 µM]	1%	·
Cc1cccc(NC(=O)N2CCCC2C(=O)NCc2cccs2)c1 (stereo not given)	8.1%	-1%	13%	-12%	3%	-5%	7%	-6%

High-throughput results deposited in PubChem by National Center for Advancing Translational Sciences (NCATS).
